PglD DTNB – C. jejuni PglD acetyltransferase inhibitors, primary screen, biochemical, DTNB colorimetric, single point. UDP-N-acetylbacillosamine N-acetyltransferase PglD (Campylobacter jejuni). purified PglD enzyme, DTNB colorimetric CoA detection. inhibition, % at 12.5 µM. actives 0.098% (n = 360,000). AID 602405, 2012; in the data active = inhibition above about 16%, passing the limit was not always enough; inconclusive = no clear call, values can overlap the other calls; also: strong numbers were not always called active
PAX8 inh HTS – inhibitors of PAX8-driven TPO luciferase reporter, primary screen, RMG-I cells, single concentration; SteadyGlo, 24 h; inhibition, % at 12.6 µM; actives 1.2% (n = 360,000); AID 652154, 2013;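 active = mean replicate inhibition at least 60% with every replicate also reaching 60%; inconclusive = only one of the two criteria is met; inactive = mean below 60% and not all replicates reaching 60%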;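 also: luciferase light reporting Pax8 driven TPO promoter activity; plate controls were median of neutral control wells for no effect and mitoxantrone controls for full effect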
GSIS activator – GLuc luminescence reporter in INS-1E cells, primary screen for activators of glucose-dependent secretion of insulin; INS-1E GLuc reporter insulin secretion, 2-3 h; actives 0.61% (n = 370,000); activation, % at 16.6 µM;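 active = lowest replicate activation of at least 40%, so every replicate reaches that level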;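 also: 0% = median of neutral control wells and 100% = median of IBMX positive control wells; some compounds called inactive have numbers as strong as hits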
C2C12 statin – suppressors of statin myotoxicity in C2C12 myotubes, primary screen, cell-based, single point, plate reader. C2C12 myotubes + simvastatin, ATP luminescence, 48 h; scaled: DMSO 0, geranylgeraniol control 100. rescue of ATP level, % at 7.49 µM. actives 0.78% (n = 330,000). AID 602340, 2012;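 active = mean ATP rescue above about 67%, or every replicate alone reaching that limit, limit read from the data, passing the limit was not always enough; inconclusive = no clear call, values can overlap the other calls; inactive = mean under the limit and some replicate under it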;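 also: myotubes were challenged with 10 µM simvastatin during compound exposure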
PGC1a acetyl inh – inhibitors of PGC1a acetylation signal, primary screen, cell-based, U2OS, AlphaScreen, inhibitor mode; inhibition, % at 15.6 µM; AID 651687, 2012; actives 0.17% (n = 350,000); AlphaScreen anti-acetyl-lysine; with virally co-expressed GCN5 acetyltransferase;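 active = every replicate shows inhibition of at least 40%; inconclusive = mean inhibition at least 40% but some replicate below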;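 also: 0% = neutral control wells and 100% = positive control wells; some results beyond the cut were filed as inactive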
LGR2 inh – inhibitors of bursicon-induced LGR2 CRE-luciferase signal, primary screen, cell-based, HEK293, CRE-luciferase reporter, bursicon stimulation | Drosophila bursicon receptor LGR2 (rickets) | AID 720647, 2013 | bursicon-stimulated, 4 h | actives 0.35% (n = 380,000) | inhibition, % at 9.99 µM;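 active = drop in luminescence signal, shown as inhibition above about 50% in the replicate tests, limit read from the data, passing the limit was not always enough; inconclusive = probably only some replicates passing the limit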;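 also: agonist challenge used bursicon conditioned medium at about half maximal strength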
Cneo AK release – Cryptococcus neoformans cell lysis inducers, primary screen, AK release luminescence, single concentration; lysis activity, % at 15 µM; C. neoformans lysis, adenylate kinase release luminescence, 4 h; normalised: neutral wells 0, clomiphene wells 100; AID 651654, 2012; actives 0.2% (n = 360,000);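 active = mean lysis activity across replicates of at least 80%, whatever share of replicates individually reach that level; inactive = mean lysis activity below 80%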
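Test system: log-phase Cryptococcus neoformans yeast cells; Quantity: yeast cell density of 5 × 10^6 cells/mL; Buffer or medium: YPD; Doses: single compound concentration per well; Timing: 4 h at 37 °C static, read 1 h later; Measured by: AK luminescence; Read-out basis: lysis from increased AK signal; Control set: Clomiphene as positive control.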
An asterisk follows results filed as active; ? = inconclusive; / = no result given. These rows are one share of the data (hit frequency here may not be typical).

no.	SMILES	PglD DTNB	PAX8 inh HTS	GSIS activator	C2C12 statin
1	CC1(C)Cc2ccccc2C(/C(C#N)=N/O)=N1	2	-13	16	14
2	CCCN1CCN(C(=O)CN2C(=O)COc3ccc(S(=O)(=O)N(CC)CC)cc32)CC1	-1	2	8	0
3	O=C(N/N=C/c1ccccn1)c1cc(C2CC2)nc2ccccc12	-2	/	/	-7
4	O=C(NCc1ccccn1)c1cccc([N+](=O)[O-])c1	-8	/	3	-61
5	Cc1[nH][nH]c(=O)c1C(c1cc(Br)ccc1O)c1c(C)[nH][nH]c1=O	3	12	-41	2
6	C[C@H]1CN([C@@H](C)CO)C(=O)c2cc(NC(=O)Nc3cccc4ccccc34)ccc2O[C@H]1CN(C)C(=O)Nc1ccc(C(F)(F)F)cc1	-2	/	-8	10
7	Cc1cccc(/C=C2/Sc3ccc(C(=O)N4CCOCC4)cc3NC2=O)c1	-5	3	17	-8
8	O=C(N/N=C/c1ccc([N+](=O)[O-])cc1)c1ccc(NS(=O)(=O)c2cccs2)cc1	3	9	-18	6
9	CCOC(=O)C1CCN(C(=O)CCc2ccc(S(=O)(=O)NCC(C)C)cc2)CC1	-5	3	-2	-9
10	CCOc1ccc(CNn2cnnc2)cc1	3	-35	4	-1
11	O=C1C2CCCCN2C(=O)N1CCCCN1CCN(c2cccc(Br)c2)CC1 (centres undefined)	-5	23	5	0
12	C[C@H](CO)N1C[C@H](C)[C@@H](CN(C)C(=O)c2ccncc2)OCCCC[C@H](C)Oc2ccc(NC(=O)Cc3ccccc3)cc2C1=O	-1	0	23	-8
13	O=C(Nc1nnc(C2CC2)s1)c1ccccn1	-2	/	15	/
14	CC(=O)c1ccc(NC(=O)Cn2cnc(S(=O)(=O)N3CCC(C)CC3)c2)cc1	2	1	2	4
15	COc1ccc(CNc2nc(NCc3ccc(OC)cc3)n(C(=O)c3ccccc3[N+](=O)[O-])n2)cc1	4	/	6	4

no.	PGC1a acetyl inh	LGR2 inh	Cneo AK release
1	/	2	-4
2	3	-6	2
3	11	/	2
4	2	-10	-2
5	7	3	-2
6	-5	-4	-5
7	-22	11	2
8	2	-15	-3
9	5	3	2
10	-8	1	5
11	17	2	0
12	-7	-27	102*
13	5	?	-2
14	7	1	2
15	-18	-12	-3

Next section.
no.	SMILES	PglD DTNB	PAX8 inh HTS	GSIS activator	C2C12 statin
16	C=CCOc1c(Br)cc(/C=N/n2c(CC)n[nH]c2=S)cc1Br	/	-11	/	/
17	Cc1ccc(/C=N/NC(=O)c2cccc(S(=O)(=O)Nc3ccccc3Cl)c2)s1	3	28	-2	4
18	Cc1ccc(NC(=O)CSc2cccc3cccnc23)c(C)c1	-5	0	1	9
19	CC(=O)N(C)C[C@H]1Oc2cc(-c3ccc(C#N)cc3)ccc2S(=O)(=O)N([C@H](C)CO)C[C@@H]1C	-2	/	1	-9
20	COC(=O)[C@H](C(C)C)N(Cc1ccccc1)S(=O)(=O)CCNC1CCCC1	12	-19	-15	3
21	COC(=O)C(C)n1cnc2c(nnn2-c2cccc(OC)c2)c1=O (centres undefined)	-2	-12	3	-7
22	CCC(C)N1CCCCC1C(=O)Nc1c(C)cc(C)cc1C (centres undefined)	-6	/	/	2
23	O=C(N/N=C/c1ccccn1)c1cccc(S(=O)(=O)N2CCCC2)c1	/	3	-5	12
24	CCN(CC(=O)NCc1ccccn1)S(=O)(=O)c1ccc(OC)cc1	-2	-11	3	-9
25	CCc1cccc2c(/C=N/NC(=O)c3cccc(S(=O)(=O)Nc4ccccc4Cl)c3)c[nH]c12	/	-4	-23	/
26	Cc1ccc(-c2c(NCCc3ccccc3)c(=O)c2=O)cc1	-4	2	6	-4
27	O=C(Cn1cnc(S(=O)(=O)N2CCCC2)c1)Nc1ccccc1	6	-13	3	-8
28	Nc1ccc(C(=O)Oc2ccc([N+](=O)[O-])cc2)cc1	1	2	-23	-1
29	CCOC(=O)c1cnc(-n2nc(C)cc2C)nc1NCc1ccccc1	6	13	/	/
30	CC(=O)N(C)C[C@H]1Oc2cc(-c3ccc(C#N)cc3)ccc2S(=O)(=O)N([C@@H](C)CO)C[C@H]1C	6	/	-1	-3

no.	PGC1a acetyl inh	LGR2 inh	Cneo AK release
16	/	/	/
17	-1	-2	-1
18	-6	-4	-5
19	6	3	-2
20	-7	11	1
21	28	-25	-11
22	2	/	1
23	-3	12	/
24	2	6	0
25	/	-14	/
26	1	5	2
27	-1	3	-1
28	/	-36	1
29	0	/	32
30	13	-4	-1

Following part.
no.	SMILES	PglD DTNB	PAX8 inh HTS	GSIS activator	C2C12 statin
31	Clc1ccccc1-c1nc(-c2ccccc2)n[nH]1	2	-171	/	10
32	CC(=O)NS(=O)(=O)c1cccnc1Nc1ccc(Cl)cc1	2	/	2	0
33	COc1ccc(-c2nnc(-c3ccc(C)cc3)o2)cc1	0	-133	13	4
34	C[C@@H]1CN([C@@H](C)CO)C(=O)c2cccc(NC(=O)c3ccncc3)c2O[C@H]1CN(C)Cc1ccc(-c2ccccc2)cc1	8	15	-40	-30
35	O=C(N/N=C/c1ccccc1C(=O)O)c1cccc(S(=O)(=O)Nc2cc(Cl)ccc2Cl)c1	-2	0	4	-11
36	C[C@H](CO)N1C[C@H](C)[C@@H](CN(C)Cc2cccnc2)Oc2cc(C#CCN(C)C)ccc2S1(=O)=O	3	/	1	-45
37	C[C@@H]1CN([C@@H](C)CO)C(=O)c2cc(C3=CCCCC3)cnc2O[C@H]1CN(C)C(=O)Cc1cccnc1	3	/	-2	4
38	COC(=O)C1=NN(c2ccccc2)C2C(=O)N(c3ccccc3OC)C(=O)C12 (centres undefined)	-6	-8	21	/
39	Cc1ccc(C(=O)N/N=C\c2ccc3c(c2)OCO3)cn1	-2	-27	7	3
40	CCN(Cc1nc2ccccc2c(=O)[nH]1)Cc1nc2ccsc2c(=O)[nH]1	-5	12	1	/
41	CC(C)CCN1CCN(C/C=C/c2ccco2)CC1CCO (centres undefined)	2	-193	11	8
42	CSc1nnc(-c2ccc([N+](=O)[O-])cc2)o1	4	33	5	-6
43	COc1ccc(-c2nnc(NC(=O)c3ccc([N+](=O)[O-])o3)o2)c(OC)c1	-1	-19	12	/
44	CSc1nnc2c(n1)[nH]c1c(C)cccc12	9	/	/	0
45	Nc1nc(NCc2ccco2)nn1-c1ccccc1	-2	-10	/	/

no.	PGC1a acetyl inh	LGR2 inh	Cneo AK release
31	14	/	-6
32	-1	7	0
33	-5	-88	-7
34	9	10	-1
35	?	-4	-4
36	-6	3	54
37	2	4	110*
38	3	-3	0
39	-8	0	-10
40	9	-29	3
41	6	2	3
42	0	-5	0
43	1	13	-1
44	/	/	1
45	/	/	-2

Already shown: entries from further up.
no.	SMILES	PglD DTNB	PAX8 inh HTS	GSIS activator	C2C12 statin
43	COc1ccc(-c2nnc(NC(=O)c3ccc([N+](=O)[O-])o3)o2)c(OC)c1	-1	-19	12	/
44	CSc1nnc2c(n1)[nH]c1c(C)cccc12	9	/	/	0
45	Nc1nc(NCc2ccco2)nn1-c1ccccc1	-2	-10	/	/

no.	PGC1a acetyl inh	LGR2 inh	Cneo AK release
43	1	13	-1
44	/	/	1
45	/	/	-2

Arranged by molar mass (descending): some entries from above
no.	SMILES	PglD DTNB	PAX8 inh HTS	GSIS activator	C2C12 statin
36	C[C@H](CO)N1C[C@H](C)[C@@H](CN(C)Cc2cccnc2)Oc2cc(C#CCN(C)C)ccc2S1(=O)=O	3	/	1	-45
40	CCN(Cc1nc2ccccc2c(=O)[nH]1)Cc1nc2ccsc2c(=O)[nH]1	-5	12	1	/
39	Cc1ccc(C(=O)N/N=C\c2ccc3c(c2)OCO3)cn1	-2	-27	7	3

no.	PGC1a acetyl inh	LGR2 inh	Cneo AK release
36	-6	3	54
40	9	-29	3
39	-8	0	-10

(more compounds)
no.	SMILES	PglD DTNB	PAX8 inh HTS	GSIS activator	C2C12 statin
46	O=C(NC12CC3CC(CC(C3)C1)C2)c1ccc(-c2ccccc2Cl)o1	-6	/	-31	-29
47	C[C@H]1CN([C@@H](C)CO)S(=O)(=O)c2ccc(C#CCN(C)C)cc2O[C@@H]1CN(C)Cc1cccnc1	0	/	12	1
48	COc1ccccc1N(Cc1ccccc1)S(=O)(=O)c1cccc(C(=O)Nc2ccccn2)c1	-4	-11	-18	1
49	CCOC(=O)c1cnc(-n2nc(C)cc2C)nc1N(CC)CC	2	/	/	-1
50	COc1ccc(NC(=O)N2C[C@@H]3[C@H](c4ccccc42)[C@H](CO)N3Cc2ccccn2)cc1	0	-6	-2	-27
51	COc1ccccc1OCc1nnc(SCC(=O)Nc2ccc(C)cc2)n1C	-2	/	/	10
52	C[C@@H]1CN([C@H](C)CO)C(=O)Cc2cc(NC(=O)Nc3cccc4ccccc34)ccc2O[C@@H]1CN(C)Cc1ccc(C(=O)O)cc1	-1	-37	-11	11
53	COCCNc1ccc([N+](=O)[O-])cc1C(=O)Nc1cccc(C)n1	/	15	8	/
54	Cc1ccc(-c2nn(-c3ccccc3)c3[nH]c(=O)c(CNCc4ccccc4)cc23)cc1	-3	/	9	-7
55	CCc1ccccc1NC(=O)c1ccc(NCCc2ccccc2)c([N+](=O)[O-])c1	/	0	-13	/
56	N#Cc1ccc(CC(=O)c2ccccc2)[nH]c1=O	-2	/	-1	-4
57	COc1ccc(-c2cc(-c3n[nH]c(=S)n3-c3cc(OC)ccc3OC)[nH]n2)cc1	/	20	/	/
58	CCc1nnc(NC(=O)C2(C)COC(c3ccccc3)OC2)s1 (centres undefined)	/	9	4	/
59	CC(C)CC(C(=O)N1CCOCC1)N1Cc2ccccc2C1=O (centres undefined)	/	-6	6	/
60	O=C(O)c1cc(Cl)c(Cl)cc1C(=O)N1CCCC1	3	/	4	8

no.	PGC1a acetyl inh	LGR2 inh	Cneo AK release
46	1	-5	-3
47	-16	7	3
48	/	13	-3
49	/	/	3
50	0	-4	47
51	/	/	0
52	2	6	105*
53	-7	16	/
54	-8	6	2
55	/	17	/
56	/	2	-1
57	/	/	/
58	2	-14	/
59	/	-9	/
60	4	-1	7

The list continues:
no.	SMILES	PglD DTNB	PAX8 inh HTS	GSIS activator	C2C12 statin
61	CC1(C)Cc2cccc(OCC(O)CNCc3ccccn3)c2O1 (centres undefined)	1	/	/	1
62	O=C(COC(=O)c1cnccn1)c1ccc(-c2ccccc2)cc1	/	-10	16	-2
63	CCOC(=O)c1cnc(-n2nc(C)cc2C)nc1Nc1ccc(C)cc1	2	/	/	/
64	CCN(CC)CCOCCOc1ccc(Cl)c2ccccc12	/	13	15	/
65	CC(=O)Oc1ccc(C(=O)Nc2ccc(C3(C#N)CCCC3)cc2)cc1	4	-76	25	-11

no.	PGC1a acetyl inh	LGR2 inh	Cneo AK release
61	46	/	0
62	/	1	/
63	-7	/	11
64	/	28	/
65	14	13	-1

Screening results as filed in PubChem BioAssay.
